Compound activity as filed in PubChem.
Autofluor counter – flagged as autofluorescent in microsphere protease counterscreen | fluorescence intensity (no concentration beside the values) | compound autofluorescence counterscreen, microsphere flow cytometry; stronger effect = higher value | 360,000 tested, 3.1% active | AID 624483;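 active = at least 3 SD above the mean of all compounds, about 16000 in these data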;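 also: 100 nL of 1 mM stock went into each well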
The depositor's hits bear a star. The list is partial; count on the stated rates, not on these rows.

SMILES	Autofluor counter
Nc1cc(S(=O)(=O)c2ccc(N3CCCCC3)c(N)c2)ccc1N1CCCCC1	4418
CCN(CC(=O)Nc1ccc(OC)cc1)C(=O)c1cccc(S(=O)(=O)N2CCN(c3ccccc3)CC2)c1	2954
CCc1nc2ccc(C(=O)N(C)CCN(C)C)cn2c1N(CC)C(=O)NCCc1ccccc1	3807
CC(=O)OC[C@@H]1CN(Cc2ccccc2)C[C@H](n2cnc3c(N4CCOCC4)ncnc32)O1	3546
O=C(NC(c1ccc(Cl)cc1)c1ccsc1)C1CCN(Cc2cccc(Cl)c2)CC1 (stereo unspecified)	5527
Fc1cc(Cl)ccc1Nc1nc(NCc2ccccc2)nc2ccsc12	3987
CN1OC[C@@H]2CN(C(=O)C(C)(C)C)[C@H](c3ccc(-c4cc5ccccc5o4)cc3)C[C@@H]21	3421
COc1ccc(CN(C)C(=O)CCNS(=O)(=O)c2ccccc2)c(OC)c1	3086
O=S(=O)(c1cccnc1)N1CCCC(Nc2ccc(F)c(F)c2)C1 (stereo unspecified)	3108
COc1ccccc1CCn1cnc(Cc2ccccc2)c1C(C)C	7629
CCCCCCCCN1C(=O)[C@H](CC(=O)N2CCN(C(=O)c3ccco3)CC2)C[C@@]2(C(=O)OC)CCCCC=C12	5133
COc1ccc(-c2ccc(C(=O)NCc3ccc(N4CCN(C)CC4)cc3)c3occc23)c(C)c1	3890
COc1ccc(NC(=S)N2CCC3CC2c2c(Cl)cccc23)c(OC)c1 (stereo unspecified)	3378
O=C(/C=C/[C@H]1O[C@@H](n2ccc(=O)[nH]c2=O)[C@H](O)[C@@H]1O)NCCN1CCCCC1	4212
CCCCC1Cc2[nH]c(=S)[nH]c(=O)c2C(c2ccc(Cl)cc2)O1 (stereo unspecified)	6108
CCCc1nc2cc(C)c(Br)c(C)n2c1CC1CCCCC1	6135
CCOC(=O)c1cccc(C2=C(CNC(=O)c3cccnc3)[C@H]3CC[C@@H](C2)N3Cc2ccccc2)c1	3404
COc1cc(C(O)c2nc(-c3ccc(N(C)C)cc3)cs2)ccc1F (stereo unspecified)	3785
COc1ccccc1C(NC(=O)C1CCN(CCOc2ccc3ccccc3c2)CC1)c1ccccn1 (stereo unspecified)	2844
CCOC(=O)[C@]12CCCC=C1N(Cc1ccco1)C(=O)[C@H](CC(=O)N1CCSCC1)C2	5825
COc1ccc(Br)c(Cn2c(C)c(C(=O)NCc3cccc([N+](=O)[O-])c3)sc2=O)c1	5316
CN(Cc1c(C(=O)N/N=C/c2ccccc2O)nnn1-c1nonc1N)C1CCCCC1	3504
O=c1[nH]nc(-c2cc(-c3ccccc3)nc3ccccc23)o1	4167
CC1(C(=O)NCc2cccc(Cl)c2)Cc2c(-c3ccccc3)ccnc2O1 (stereo unspecified)	3313
CCCCc1c(-c2ccc(Cl)cc2)ncn1CCc1ccccc1OC	6336

Remaining list, next part:
SMILES	Autofluor counter
O=C(Nc1ccccc1)OCCc1ccccc1	4031
C[C@H](CO)N1C[C@H](C)[C@@H](CN(C)C(=O)c2cccc(F)c2)Oc2cc(-c3cncnc3)ccc2S1(=O)=O	3767
CC1(Cc2ccccc2C#N)C(=O)Nc2ccc(OC(F)(F)F)cc21 (stereo unspecified)	3926
COc1ccc(C(=O)N2CCN(c3nc4cc(C)cc(C)c4cc3C#N)CC2)cc1	3783
CCOC(=O)[C@]12CCCC=C1N(Cc1ccco1)C(=O)[C@H](CC(=O)N1CCC(c3ccccc3)CC1)C2	6132
O=C(c1cccs1)N1CCN(Cc2nc(-c3ccccc3)no2)CC1	3742
O=C(c1cc(COc2cccc3cccnc23)on1)N1CCC[C@H]1CO	1908
CCOC(=O)C1=C(C)N=c2sc(=Cc3ccc(OCC(=O)O)cc3)c(=O)n2C1c1ccc(SC)cc1 (stereo unspecified)	3936
Cc1ccc(C)c(C(O)c2ncc(-c3ccccc3)[nH]2)c1 (stereo unspecified)	3830
CN(Cc1ccccc1)C(=O)C1(C)CCN1C(=O)Cc1ccc(Cl)cc1Cl (stereo unspecified)	2933
C[C@H](NC(=O)/C=C/[C@H]1O[C@@H](n2ccc(=O)[nH]c2=O)[C@H](O)[C@@H]1O)C(=O)O	5480
COc1ccccc1CNc1nc(Nc2ccc(C)cc2C)c2sccc2n1	3084
O=C1NCCCC1(c1ccccc1)c1ccccc1	3801
CCOC(=O)[C@]12Cc3ccc4ccccc4c3[C@H]1N(Cc1ccccc1)C(=O)c1ccccc12	5587
CCCCCc1c(-c2ccc(Br)cc2)ncn1CCc1ccccc1OC	5966
CCc1nc2c(=O)[nH]cnc2o1	4473
COc1ccc(N)cc1NC(=O)CN1CCOCC1	3936
CC1(C(=O)NC2CCCCC2)CCC(=O)N1CCOc1ccccc1 (stereo unspecified)	4196
COc1cccc(CNc2nc3cc(-c4cscc4C)sc3c(=O)n2C)c1	3559
COc1cc(NC(=O)c2ccc(-c3ccc(F)c(F)c3)c3ccoc23)cc(OC)c1OC	3328
CN1C(=O)c2c(C(=O)Nc3ccc(Oc4ccncc4)cc3)[nH]c(-c3ccccc3)c2C1=O	4315
CCCCC[C@@H](C)N1C[C@H](COCc2ccccc2)Oc2cc(N3CCC[C@H]3COC)ccc2S1(=O)=O	4221
COc1ccc(C(C)=O)cc1CON=C1CSCc2ccccc21	3701
Cc1cccc(CN2CCN(C3CN(Cc4cn(Cc5cc(C)cc(C)c5)nn4)S(=O)(=O)C3)CC2)c1 (stereo unspecified)	4637
CCCCC[C@@H](C)N1C[C@H](COCc2ccccc2)Oc2cc(N3CC[C@@H](O)C3)ccc2S1(=O)=O	5632

Later entries:
SMILES	Autofluor counter
CC1=C(C(=O)N2CCOCC2)CC(CC(=O)NCc2cccs2)C(=O)N1Cc1ccccc1 (stereo unspecified)	6371
CC1(C(=O)Nc2cnc3ccccc3c2)CCN1C(=O)CC(c1ccccc1)c1ccccc1 (stereo unspecified)	2945
COc1cccc(NC(=O)C2(C)CCN2Cc2ccc(OC)c3ccccc23)c1 (stereo unspecified)	3843
O=C1NC[C@H](CCCCN2CCN(CCc3ccccc3)C(=O)C2=O)N(CCC2CCCCC2)C1=O	5079
CC1(C(=O)NS(=O)(=O)c2ccc(Cl)cc2)CCN1C(=O)Cc1cccc2ccccc12 (stereo unspecified)	4530
CC(C)(C)NC(=O)C1c2ccccc2OCC(=O)N1Cc1ccc2c(c1)OCO2 (stereo unspecified)	5749
Cc1cc2nc(C(C)(C)C)c(Cc3ccsc3)n2c(C)c1Br	6397
C/C=C/c1cnc2c(c1)C(=O)N([C@H](C)CO)C[C@@H](C)[C@@H](CN(C)C(=O)NC1CCCC1)O2	3800
COCOCCn1cc(CN2CCS(=O)(=O)N(Cc3ccc(-c4ccccc4)cc3)C(C(C)C)C2=O)nn1 (stereo unspecified)	3005
COCCN(C(=O)c1ccco1)c1nc(-c2ccc(OC)cc2)cs1	3357
COCCN1C[C@@H](CO)O[C@@H](n2cnc3c(NC(C)C)ncnc32)C1	3342
CCCCNC(=O)c1nc(-c2ccncc2)oc1-c1ccccc1	5892
O=S(=O)(c1ccc(NC(=S)N2CCCCC2)cc1)N1CCCCC1	3767
O=C1NC[C@@H](CCCCN2C[C@H](Cc3ccc(O)cc3)N(CCC3CCCCC3)C(=O)C2=O)N(CC2CCCCC2)C1=O	4467
O=C(c1ccoc1)N1CCN(c2cc(-c3cccnc3)nc3cc(-c4cccc(Cl)c4)nn23)CC1	3925
CC(C)(C)c1ccc(C(=O)N2CCC2(C)C(=O)Nc2ccc3nc[nH]c3c2)cc1 (stereo unspecified)	3806
C=C1C(=O)C23C(O)C1CCC2C12COC3(O)C(O)C1C(C)(C)CCC2O (stereo unspecified)	4019
COCC(=O)Nc1ccc2c(c1)[C@@H]1C[C@H](CC(=O)NCc3cccc(F)c3)O[C@@H](CO)[C@@H]1O2	2945
COc1cccc(-c2cnc3c(NC(C)=O)cc(-c4ccncc4)cn23)c1	2961
Cc1cc(F)ccc1C(O)c1ncc(-c2ccccc2)[nH]1 (stereo unspecified)	3599
O=C(Nc1ccc(F)c(Cl)c1)Nc1nnc([C@@H]2O[C@H](CO)[C@@H](O)[C@H]2O)s1	3805
Cc1cnc(C)c(Nc2nc(C(N)CCc3ccccc3)cs2)n1 (stereo unspecified)	3884
CC(C)(C)c1ccc(C(O)c2ncc(-c3ccc(F)cc3)[nH]2)cc1 (stereo unspecified)	3030
Cc1cc(C)cc(C(O)c2ncc(-c3ccccc3C(F)(F)F)[nH]2)c1 (stereo unspecified)	4074
O=C1Cc2ccccc2C(=O)N1	5983

Carrying on:
SMILES	Autofluor counter
COc1cc(C(=O)NCCC(=O)NCc2cccs2)cc(OC)c1OC	3898
CC(C)(C)C(=O)N1Cc2cc(N3CCCCC3)ccc2-n2nncc2C1	5057
Nc1[nH]c(C(=O)c2ccccc2)c(-c2ccc(Cl)cc2Cl)c1C(=O)c1ccc(Br)cc1	6130
CC1(C)CC(=O)C=C(C#CC2(O)CCCCC2)C1	3702
CCOC(=O)N1CCN(C(=O)C[C@@H]2C[C@@]3(C(=O)OCC)CCC=C3N(Cc3ccc(Cl)cc3Cl)C2=O)CC1	5640
COc1ccc(Cl)c(-c2cc(C(=O)NCc3ccc(C(F)(F)F)cc3)[nH]n2)c1	4114
CCOC(=O)N1CCN(C(=O)C[C@@H]2C[C@@]3(C(=O)OC)CCCCC=C3N(CCC3=CCCCC3)C2=O)CC1	5780
Cc1ccc(Oc2ccc(OCC(=O)Nc3ccncc3)cc2)cc1	3753
COc1ccc(OC)c(NS(=O)(=O)c2ccc3[nH]c(=O)[nH]c3c2)c1	3413
C[C@H](NC(=O)[C@@H]1CCCN1C(=O)[C@@H]1CCCN1C(=O)c1cccc(Cl)c1)c1ccccc1	6854
C[C@@H]1CN([C@@H](C)CO)C(=O)CCCn2nncc2CO[C@@H]1CN(C)C(=O)c1ccncc1	3688
CCCCC(=O)N(C)c1c(C)nc2ccc(C(=O)N3CCN(C(=O)c4ccco4)CC3)cn12	3550
O=C(O)C(=O)Nc1ncn[nH]1	3384
CCCCNS(=O)(=O)c1cccc(NC(=O)[C@H]2C[C@H](O)[C@@H](CO)O2)c1	3749
CC(C)CC(N)c1csc(Nc2cnccn2)n1 (stereo unspecified)	3708
O=C(Nc1cccc(OC(F)(F)F)c1)C1Cc2c(-c3ccc4c(c3)OCO4)ccnc2O1 (stereo unspecified)	3677
CSc1ccc(CN2CCC(C)(Oc3ccc(F)cc3)C2)cc1 (stereo unspecified)	3896
Fc1ccc(-c2nc3ccc(Br)cn3c2Cc2ccccc2)cc1	2940
CCc1nc2ccc(C(=O)N(CC)CCN(C)C)cn2c1N(C)C(=O)C1CCCCC1	3925
CS(=O)(=O)c1ccc(C2=C(CNC(=O)c3cccs3)[C@H]3CC[C@@H](C2)N3CCOc2ccccc2)cc1	3833
CCOC(=O)[C@]12CCCC=C1N(Cc1ccc3c(c1)OCO3)C(=O)[C@H](CC(=O)NCCCCc1ccccc1)C2	5612
C[C@H]1CNC(=O)c2c(C(=O)NC3CCN(C(=O)OC(C)(C)C)CC3)ncn21	4493
CN(CC1COc2ccccc2O1)C(=O)CCNS(=O)(=O)c1ccc(F)c(Cl)c1 (stereo unspecified)	4072
CCc1ccc(CN2CCC(n3nccc3NC(=O)c3ccccc3OC)CC2)o1	3588
CN(C)CC(=O)Nc1ccc2c(c1)[C@H]1C[C@H](CC(=O)NCc3ccc4c(c3)OCO4)O[C@H](CO)[C@H]1O2	3017

Carrying on:
SMILES	Autofluor counter
O=S1c2ccccc2-c2ccccc21	3816
CC(C)C[C@@H]1Cc2[nH][nH]c(=O)c2[C@H](C)O1	4355
Cc1cc(C)c2cc(C#N)c(NCCCNC(=O)c3cccnc3)nc2c1	4024
CCCS(=O)(=O)NC(=O)C1(C)CCCN(C(=O)CSc2ccccc2)C1 (stereo unspecified)	3111
CC(C)n1c(=O)c2ccccc2n1Cc1cn(Cc2cccnc2)nn1	4201
CCOC(=O)N1CCN(C(=O)C[C@@H]2C[C@@]3(C(=O)OCC)CCCC=C3N(Cc3ccco3)C2=O)CC1	4385
Cc1ccc(Cn2cc(CN3CC(N4CCCCC4)CS3(=O)=O)nn2)cc1 (stereo unspecified)	6043
CC(=O)Nc1ccc(CN(C)c2c(C)nc3ccc(C(=O)N(C)Cc4ccccc4)cn23)cc1	3759
CC(C)n1nnnc1C1c2ccccc2C(=O)N1C1CC1 (stereo unspecified)	4117
O=C1CN(CN2CCCCC2)C(=O)CN1CN1CCCCC1	6097
O=C(Cn1cc(COc2ccc(Cl)c(Cl)c2)nn1)NS(=O)(=O)c1ccccc1C(F)(F)F	4019
OC(c1ccc(-c2ccccc2)cc1)c1ncc(-c2ccccc2F)[nH]1 (stereo unspecified)	4011
CC(C)=CCCC(C)=CCN1C(=O)CN(C)C1=O	3409
COC(=O)[C@]12CCCCC=C1N(Cc1cccc3ccccc13)C(=O)[C@H](CC(=O)NCCC(C)C)C2	4237
O=S(=O)(NC1CCc2ccccc21)c1ccccc1 (stereo unspecified)	2826
O=c1ccn(C2CCCCC2)c(=O)[nH]1	5186

An excerpt from above in order of molar mass, low to high:
SMILES	Autofluor counter
O=c1ccn(C2CCCCC2)c(=O)[nH]1	5186
CC(C)C[C@@H]1Cc2[nH][nH]c(=O)c2[C@H](C)O1	4355
CC(C)=CCCC(C)=CCN1C(=O)CN(C)C1=O	3409
O=S(=O)(NC1CCc2ccccc21)c1ccccc1 (stereo unspecified)	2826
CC(C)n1nnnc1C1c2ccccc2C(=O)N1C1CC1 (stereo unspecified)	4117
O=C1CN(CN2CCCCC2)C(=O)CN1CN1CCCCC1	6097
OC(c1ccc(-c2ccccc2)cc1)c1ncc(-c2ccccc2F)[nH]1 (stereo unspecified)	4011
CC(C)n1c(=O)c2ccccc2n1Cc1cn(Cc2cccnc2)nn1	4201
Cc1cc(C)c2cc(C#N)c(NCCCNC(=O)c3cccnc3)nc2c1	4024
Cc1ccc(Cn2cc(CN3CC(N4CCCCC4)CS3(=O)=O)nn2)cc1 (stereo unspecified)	6043
CCCS(=O)(=O)NC(=O)C1(C)CCCN(C(=O)CSc2ccccc2)C1 (stereo unspecified)	3111
CC(=O)Nc1ccc(CN(C)c2c(C)nc3ccc(C(=O)N(C)Cc4ccccc4)cn23)cc1	3759
CN(C)CC(=O)Nc1ccc2c(c1)[C@H]1C[C@H](CC(=O)NCc3ccc4c(c3)OCO4)O[C@H](CO)[C@H]1O2	3017
O=C(Cn1cc(COc2ccc(Cl)c(Cl)c2)nn1)NS(=O)(=O)c1ccccc1C(F)(F)F	4019
